Compound activity: PubChem BioAssay, Broad Institute
DUX4 inh – inhibitors of DUX4-driven ZSCAN4 reporter expression, primary screen, 293T cells, Gaussia and Italica luciferase | 293T-iDUX4 ZSCAN4-Gaussia luciferase reporter, 24 h; active compounds read low | activity change, negative = inhibition, % (no concentration beside the values) | 37,000 compounds, 0.8% hits;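 active = -10% or lower and over 25 points stronger than a control reporter; inconclusive = -10% or lower with a smaller gap; inactive = above -10%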;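 note: 0% = median of neutral control wells and -100% = median of positive control wells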
DUX4 inh difference – second read-out of DUX4 inh, no call of its own (marks repeat the call); Gaussia minus Italica difference, %; measured here: selective DUX4 reporter inhibition;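 worked out from the two reporters; negative = selective loss of the DUX4 reporter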
DUX4 inh control – also measured in DUX4 inh; calls as there; activity change, negative = inhibition, %; measured here: Italica tet-on control reporter;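 0 = neutral control and -100 = positive control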
Numbers without * were called inactive; u = inconclusive; x = no result given; & = joins results of further samples. Not all compounds are listed (hit frequency here may not be typical).

SMILES	DUX4 inh	DUX4 inh difference	DUX4 inh control
C[C@@H]1CN([C@H](C)CO)C(=O)CCCn2nncc2CO[C@@H]1CN(C)C(=O)Nc1ccccc1C(F)(F)F	0	-4	3.8
O=C(c1cccc(F)c1)N1CC(=O)N2[C@H](CO)[C@H](c3ccc(C4=CCCCC4)cc3)[C@@H]2C1	-5	-9	4.6
COCC(=O)Nc1ccc2c(c1)C(=O)N(C)C[C@H](OC)[C@@H](C)CN(C(C)=O)[C@@H](C)CO2	4	6	-1.8
CNC[C@H]1Oc2c(NC(=O)Nc3ccc(C(F)(F)F)cc3)cccc2C(=O)N([C@@H](C)CO)C[C@@H]1C	-2	2	-3.9
CNC[C@H]1Oc2ccc(NC(=O)Nc3ccc(F)cc3)cc2C(=O)N([C@@H](C)CO)C[C@@H]1C	3	0	3.2
CNC[C@H]1Oc2c(NS(=O)(=O)c3c(C)noc3C)cccc2C(=O)N([C@@H](C)CO)C[C@H]1C	5	0	4.3
CO[C@@H]1CN(C)C(=O)c2ccc(NC(=O)c3cc(C)on3)cc2OC[C@H](C)NC[C@H]1C	8	8	0.2
CC(=O)N1Cc2cc(C(=O)NCC(F)(F)F)nc(-c3cccc(-c4cccnc4)c3)c2[C@@H]1CCO	0	3	-2.7
CCCNC(=O)[C@@H]1[C@@H](CO)[C@@H]2Cn3c(ccc(/C=C/c4ccccc4)c3=O)[C@H]1N2C(=O)C1CCC1	-7	-11	4.2
CN1C(=O)c2cc(NC(=O)c3cscn3)ccc2OC[C@@H]2O[C@@H](CC(=O)NCc3ccc(Cl)c(Cl)c3)CC[C@H]21	-1	-4	2.7
C[C@H]1CN([C@@H](C)CO)C(=O)c2cc(NS(=O)(=O)c3cn(C)cn3)ccc2O[C@@H]1CN(C)CC1CCCCC1	-2	-2	-0.7
C[C@H](CO)N1C[C@H](C)[C@H](CN(C)S(=O)(=O)c2ccccc2)OCCCC[C@H](C)Oc2ccc(NC(=O)CCC(F)(F)F)cc2C1=O	1	-2	3.7
O=C1NCCCOCc2cn(nn2)CC[C@H]1Cc1ccc(-c2ccccc2)cc1	2	-3	4.5
CCCC#Cc1ccc2c(c1)O[C@@H](CN(C)S(=O)(=O)c1cccc(F)c1)[C@H](C)CN([C@@H](C)CO)S2(=O)=O	1	-7	8.0
CCCN1C[C@H](C)[C@@H](OC)CN(C)C(=O)c2cc(NC(=O)C3CCC3)ccc2OC[C@H]1C	2	3	-0.3
CNC[C@@H]1OCCCC[C@H](C)Oc2ccc(NS(=O)(=O)c3ccc(F)cc3)cc2C(=O)N([C@@H](C)CO)C[C@H]1C	-1	0	-1.2
C[C@@H]1CN([C@H](C)CO)S(=O)(=O)c2ccc(C#CC3(O)CCCC3)cc2O[C@H]1CN(C)C(=O)c1cccnc1	2	0	1.8
C[C@@H]1CN([C@H](C)CO)C(=O)CCCn2cc(nn2)CO[C@H]1CN(C)Cc1cccc(C(F)(F)F)c1	7	8	-0.6
N#C[C@@H]1[C@@H](c2ccccc2)[C@H](CO)N1C(=O)c1ccc2c(c1)OCO2	0	-2	1.7
COc1ccc(S(=O)(=O)Nc2ccc3c(c2)C(=O)N([C@@H](C)CO)C[C@@H](C)[C@H](CN(C)S(=O)(=O)c2ccc(Cl)cc2)OCCCC[C@H](C)O3)cc1	2	3	-1.2

Record cards, as listed above. Order of values: DUX4 inh | DUX4 inh difference | DUX4 inh control
CCCC#Cc1ccc2c(c1)O[C@@H](CN(C)S(=O)(=O)c1cccc(F)c1)[C@H](C)CN([C@@H](C)CO)S2(=O)=O is listed with 1 | -7 | 8.0
CNC[C@H]1Oc2c(NC(=O)Nc3ccc(C(F)(F)F)cc3)cccc2C(=O)N([C@@H](C)CO)C[C@@H]1C is listed with -2 | 2 | -3.9

The list goes on:
SMILES	DUX4 inh	DUX4 inh difference	DUX4 inh control
C/C=C/c1ccc([C@@H]2[C@H](CO)N(CC3CCCC3)C23CN(C(=O)CC)C3)cc1	u	x	x
O=C(c1cccnc1)N1CC2(C1)[C@@H](c1ccccc1)[C@H](CO)N2C(=O)C1CCC1	12	8	4.3
CS(=O)(=O)N1C[C@@H](O)COC[C@@H]2O[C@H](CC(=O)NCc3ccccc3)CC[C@H]21	3	-2	4.1
CO[C@@H](C(=O)N(C)C[C@@H]1OCc2ccccc2-c2c(n(C)c3ccccc23)C(=O)N([C@H](C)CO)C[C@@H]1C)c1ccccc1	20	10	9.5
COc1ccccc1S(=O)(=O)N1[C@@H]2CNC[C@H]1C2c1ccc(-c2cccnc2)cc1 (stereo partly specified)	3&13	3&-11	-0.5&24
CCN(C[C@H]1N[C@@H](CO)[C@@H]1c1ccc(-c2cccc(F)c2)cc1)C(=O)COC	-2	2	-4.2
O=C1CN(Cc2ccccc2)C[C@@H]2[C@H](c3ccc(Br)cc3)[C@H](CO)N12	11	1	9.1
N#C[C@@H]1[C@@H](c2ccccc2C2=CCCCC2)[C@H](CO)N1S(=O)(=O)c1ccccc1	u	x	x
CCCNC(=O)N1CC(=O)N2[C@H](CO)[C@@H](c3ccc(-c4cccc(C)c4)cc3)[C@@H]2C1	-7	0	-6.8
COc1ccc2c3c(n(C)c2c1)[C@H](CO)N(CC1CC1)CC31CN(C(=O)NC2CCCC2)C1	2	-14	16
C[C@@H](NC(=O)C[C@@H]1CC[C@H](NC(=O)Cc2ccccn2)[C@@H](CO)O1)c1ccccc1	6	7	-1.9
C[C@@H]1CN([C@@H](C)CO)C(=O)c2cc(NC(=O)CCCN(C)C)ccc2O[C@@H](C)CCCCO[C@@H]1CN(C)S(=O)(=O)c1cn(C)cn1	1	-1	1.4
CCCNC(=O)N1[C@H](C#N)[C@H](c2ccc(-c3ccccc3F)cc2)[C@H]1CO	2	2	-0.2
Cn1cnc(S(=O)(=O)N[C@H]2C=C[C@H](CC(=O)N3CCN(c4ccccc4)CC3)O[C@@H]2CO)c1	4	3	1.1
CN1CCN(C(=O)C[C@H]2CC[C@@H]3[C@H](COC[C@@H](O)CN3Cc3cccc(-c4ccncc4)c3)O2)CC1	3	8	-5.6
O=C(C[C@H]1C[C@@H]2c3cc(NS(=O)(=O)c4ccc(F)cc4)ccc3O[C@@H]2[C@@H](CO)O1)NCc1cccnc1	8	6	1.7
C/C=C/c1ccc([C@@H]2[C@@H](CO)N3CCCCN(S(=O)(=O)c4ccc(OC)cc4)C[C@H]23)cc1	-10	-11	0.8
O=C(C[C@@H]1CC[C@@H]2[C@H](COC[C@H](O)CN2S(=O)(=O)c2cccc(Cl)c2)O1)N1CCCCC1	5	-2	6.3
O=C(C[C@H]1C[C@H]2c3cc(NS(=O)(=O)c4ccccc4)ccc3O[C@H]2[C@H](CO)O1)NCC1CC1	-1	-2	1.7
CNC[C@H]1OCCCC[C@@H](C)Oc2ccc(NS(=O)(=O)c3c(C)noc3C)cc2C(=O)N([C@H](C)CO)C[C@H]1C	2	-1	3.2
CC(=O)Nc1ccc2c(c1)C(=O)N(C)[C@@H]1CC[C@H](CC(=O)NCc3ccc(Cl)cc3)O[C@@H]1CO2	4	2	2.3
O=C(C[C@@H]1CC[C@H]2[C@@H](COC[C@H](O)CN2Cc2ccc(C(F)(F)F)cc2)O1)NCCc1ccccc1	u	x	x
CN1c2ccc(Br)cc2[C@@H]2[C@@H](CCN2S(=O)(=O)c2ccccc2F)[C@H]1CO	3	8	-5.0
C[C@H]1CCCCO[C@H](CN(C)C(=O)NC2CCCCC2)[C@@H](C)CN([C@@H](C)CO)C(=O)c2cc(NC(=O)CCC(F)(F)F)ccc2O1	2	0	2.5
C[C@H](CO)N1C[C@H](C)[C@H](CN(C)C(=O)CCC(F)(F)F)OCCCC[C@H](C)Oc2ccc(NC(=O)Cc3ccccc3)cc2C1=O	-3	-2	-1.3
COc1ccc2c3c(n(C)c2c1)[C@@H](CO)N(Cc1ccccc1Cl)CC31CCN(C(C)=O)CC1	1	10	-8.9
C/C=C/c1ccc2c(c1)O[C@H](CN(C)C(=O)C1CCCCC1)[C@H](C)CN([C@@H](C)CO)S2(=O)=O	3	4	-1.1
N#C[C@H]1[C@H](c2ccccc2)[C@H](CO)N1C(=O)c1ccc2c(c1)OCO2	-4	-10	5.9
CN(C)CC(=O)N1[C@@H](CO)[C@H](c2ccccc2)C12CN(C(=O)c1ccc(F)cc1)C2	4	3	0.9
CC(C)C[C@H]1COCc2cn(nn2)CC[C@@H](C)C(=O)N1	2	5	-3.1
COc1ccc(-c2ccc([C@H]3[C@H](CO)N4C(=O)CN(Cc5ccccc5)C[C@@H]34)cc2)cc1	1	-1	2.0
CS(=O)(=O)N1[C@@H](C#N)[C@@H](c2ccccc2-c2ccccc2F)[C@@H]1CO	13	6	6.2
O=C(NC1Cc2ccccc2C1)[C@H]1[C@H](CO)[C@H]2Cn3c(cccc3=O)[C@H]2N1C(=O)C1CCC1	11	15	-4.4
C[C@@H]1CN([C@H](C)CO)C(=O)CCCn2nncc2CO[C@H]1CN(C)Cc1ccccc1C(=O)O	6	4	2.2
C[C@H](CO)N1C[C@H](C)[C@@H](CN(C)C(=O)Nc2ccc(F)cc2)Oc2c(NS(=O)(=O)c3cn(C)cn3)cccc2C1=O	-2	-4	1.5
CCS(=O)(=O)N1CCCCN2[C@H](CO)[C@@H](c3ccc(-c4ccccc4)cc3)[C@@H]2C1	-3	-3	-0.6
COc1ccc2c3c([nH]c2c1)[C@H](CO)N(Cc1ccc(F)cc1)CC31CCN(C)CC1	u	x	x
COCC#Cc1ccc([C@H]2[C@H]3CN(C(=O)NC4CCCC4)CCCCN3[C@H]2CO)cc1	23	35	-12
O=C(C1CCCC1)N1CC2(C1)[C@@H](c1ccccc1)[C@@H](CO)N2C(=O)c1cccnc1	10	9	0.7
COc1cccc(S(=O)(=O)N2CC[C@H]3[C@H](CO)Nc4ccc(C#Cc5cccnc5)cc4[C@H]32)c1	-2	1	-2.4

A run of entries of the results above, for reference:
SMILES	DUX4 inh	DUX4 inh difference	DUX4 inh control
CCS(=O)(=O)N1CCCCN2[C@H](CO)[C@@H](c3ccc(-c4ccccc4)cc3)[C@@H]2C1	-3	-3	-0.6
COc1ccc2c3c([nH]c2c1)[C@H](CO)N(Cc1ccc(F)cc1)CC31CCN(C)CC1	u	x	x
COCC#Cc1ccc([C@H]2[C@H]3CN(C(=O)NC4CCCC4)CCCCN3[C@H]2CO)cc1	23	35	-12
O=C(C1CCCC1)N1CC2(C1)[C@@H](c1ccccc1)[C@@H](CO)N2C(=O)c1cccnc1	10	9	0.7
COc1cccc(S(=O)(=O)N2CC[C@H]3[C@H](CO)Nc4ccc(C#Cc5cccnc5)cc4[C@H]32)c1	-2	1	-2.4

Copied from the list:
DUX4 inh with O=C(NC1Cc2ccccc2C1)[C@H]1[C@H](CO)[C@H]2Cn3c(cccc3=O)[C@H]2N1C(=O)C1CCC1 stands at 11
DUX4 inh with C[C@H](CO)N1C[C@H](C)[C@@H](CN(C)C(=O)Nc2ccc(F)cc2)Oc2c(NS(=O)(=O)c3cn(C)cn3)cccc2C1=O stands at -2

Next part:
SMILES	DUX4 inh	DUX4 inh difference	DUX4 inh control
O=C(C[C@@H]1CC[C@H]2[C@@H](COC[C@H](O)CN2C(=O)Nc2ccc(F)cc2)O1)NCCc1ccncc1	3	2	1.2
CN1CCN(C(=O)C[C@H]2CC[C@@H]3[C@H](COc4ccc(NC(=O)c5cccs5)cc4C(=O)N3C)O2)CC1	-1	-5	3.9
CN1C[C@H](O)COC[C@H]2O[C@@H](CC(=O)NC3CCCC3)CC[C@@H]21	-2	1	-2.3
OC[C@@H]1[C@H](c2ccccc2)[C@@H](CNCC2CCC2)N1CC1CC1	-1	2	-3.0
COc1ccc(C#Cc2ccc([C@@H]3[C@@H](CO)N4CCCCN(C(=O)Nc5ccccc5F)C[C@H]34)cc2)cc1	u	x	x
COCC(=O)N1CC2(CN[C@H](CO)c3c2c2ccc(OC)cc2n3C)C1	23	19	4.0
COc1ccccc1NC(=O)N1C[C@@H](O)COC[C@H]2O[C@@H](CC(=O)NCCc3ccccc3)CC[C@@H]21	17	13	3.8
CN(C)c1ccc2c(c1)[C@H]1C[C@H](CC(=O)NCc3cccc(F)c3)O[C@@H](CO)[C@H]1O2	1	2	-0.5
CCNC(=O)C[C@@H]1CC[C@@H]2[C@H](COC[C@H](O)CN2C(=O)C2CCOCC2)O1	11	5	5.8
CNC[C@@H]1OCc2ccccc2-c2ccccc2C(=O)N([C@H](C)CO)C[C@@H]1C	6	-5	11
CO[C@H]1CN(C)C(=O)c2cc(NC(=O)c3cnccn3)ccc2OC[C@@H](C)NC[C@@H]1C	3	-2	4.5
COc1cccc(-c2ccc([C@@H]3[C@H]4CN(CC5CC5)CCCCN4[C@H]3CO)cc2)c1	-6	2	-7.5
CN1c2ccc(-c3cccc(F)c3)cc2[C@@H]2[C@@H](CCN2C(=O)C2CCOCC2)[C@@H]1CO	8	11	-3.5
CCCN1C[C@H](C)[C@H](OC)CN(C)C(=O)c2cc(NC(=O)c3ccccc3F)ccc2OC[C@H]1C	4	0	4.0
C[C@@H]1CN([C@H](C)CO)C(=O)CCCn2nncc2CO[C@H]1CN(C)C(=O)Nc1ccc(F)cc1	-6	-8	1.8
O=C1CN(S(=O)(=O)c2ccccc2)C[C@H]2[C@@H](c3ccc(C4=CCCC4)cc3)[C@@H](CO)N12	7	-4	10
O=C(Nc1ccccc1)N1CC(=O)N2[C@@H](CO)[C@@H](c3ccc(C#CC4CCCCC4)cc3)[C@@H]2C1	u	x	x
COc1ccc(C[C@@H]2CCn3cc(nn3)COCCCNC2=O)cc1	2	1	1.1
Cc1noc(C)c1NC(=O)N(C)C[C@@H]1OCc2ccccc2-c2ccccc2C(=O)N([C@H](C)CO)C[C@@H]1C	4	7	-2.1
Cc1ccc(S(=O)(=O)N2C[C@H](O)COC[C@H]3O[C@H](CC(=O)NCc4ccc(Cl)c(Cl)c4)CC[C@@H]32)cc1	u	x	x
